Source: PubChem BioAssay
A1 inh: A1 inhibition; MEF A1-2A-BIM cells, caspase-Glo luminescence, 3 h; percent of clofoctol signal, DMSO as zero; caspase activation, % (concentration not given with the values); 0.51% of 21,000 active; AID 2241;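 active = most replicate scores above 10, or exactly half above 10 with mean activity above 10; inconclusive = mean activity below 10 while half the replicates exceed 10; inactive = most replicate scores below 10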;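 also: effector caspase 3 and 7 activity cleaving a DEVD luciferin substrate; 50 nL library stock added to about 30 µL; numbers are from one replicate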
BJeLR viab HTS: BJeLR cell viability reduction; 0.64% of 30,000 active; BJeLR fibroblasts viability, CellTiterGlo ATP luminescence, 48 h; HRASV12, hTERT and SV40 LT/ST transformed; AID 2275; viability loss activity score, % (no concentration beside the values); in the data active = viability loss activity score above about 50%; inconclusive = no clear call, values can overlap the other calls; inactive = below about 35%; about a fifth of its hits are not listed in these tables;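 also: higher score means fewer live cells and less ATP luminescence; stock transfer was 50 or 100 nL into about 30 µL; 0% = vehicle wells and 100% = a reference killing control; one replicate is shown; the record names a cut of 85%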
* = called active by the depositor; ? = inconclusive; nt = not tested or not shown. Only part of the results is shown (hit frequency here may not be typical).

Results follow in this order: A1 inh	BJeLR viab HTS
- COc1ccc(OCC(=O)N2c3ccccc3C(C)(c3ccccc3)CC2(C)C)cc1 (centres undefined)
→ 0.9	1.5
- C[C@H](CO)N1C[C@H](C)[C@@H](CN(C)C(=O)NC2CCCCC2)Oc2c(NS(=O)(=O)c3ccccc3)cccc2C1=O
→ nt	4.2
- COc1ccc(CN(C)C[C@@H]2Oc3c(NC(=O)C4CCCCC4)cccc3C(=O)N([C@@H](C)CO)C[C@H]2C)cc1
→ nt	-2.9
- CNC(=O)CSCc1ccc(Br)cc1
→ -0.7	-2.5
- Cc1noc(C)c1S(=O)(=O)Nc1ccc2c(c1)C(=O)N([C@H](C)CO)C[C@@H](C)[C@@H](CN(C)S(=O)(=O)c1cccs1)O2
→ 1.0	4.4
- C[C@H]1CN([C@@H](C)CO)C(=O)c2cc(N(C)C)ccc2O[C@@H]1CN(C)C(=O)Nc1cccc2ccccc12
→ 1.5	-3.6
- Oc1ccccc1-c1cc(-c2ccccc2O)nc(-c2ccccc2)n1
→ 0.2	9.6
- C[C@@H]1CN([C@@H](C)CO)C(=O)c2cc(NS(=O)(=O)c3ccccc3)ccc2O[C@@H]1CN(C)CC1CCCCC1
→ -0.3	5.0
- C[C@@H]1CN([C@H](C)CO)C(=O)c2cccc(NC(=O)Nc3ccc(C(F)(F)F)cc3)c2O[C@@H]1CN(C)CC1CC1
→ nt	0.2
- CC(C)NC(=O)Nc1ccc2c(c1)C(=O)N([C@@H](C)CO)C[C@H](C)[C@@H](CN(C)C(=O)Nc1ccccc1)O2
→ 0.3	2.8
- O=C(O)CCc1c(C(=O)O)[nH]c2cc(Cl)cc(Cl)c12
→ -0.2	-3.0
- C[C@H](CO)N1C[C@H](C)[C@@H](CN(C)C)Oc2ccc(NC(=O)Nc3cccc4ccccc34)cc2C1=O
→ -0.7	-6.6
- O=C(Cn1nc(Cc2cccnc2)c2ccccc2c1=O)N1CCCC1
→ 0.8	-0.3
- COc1ccc(NC(=O)N(C)C[C@@H]2Oc3ccc(NC(=O)Cc4cn(C)c5ccccc45)cc3C(=O)N([C@H](C)CO)C[C@@H]2C)cc1
→ 0.0	-3.1
- C/C=C(\C)C(=O)O[C@H]1C=C(CO)C(=O)[C@H](OC(C)=O)[C@H]1C(C)C
→ 2.4	29
- Clc1snnc1CN1CCOCC1
→ -0.6	-1.3
- C[C@H]1CN([C@@H](C)CO)C(=O)c2cc(NC(=O)Nc3cccc4ccccc34)ccc2O[C@@H]1CN(C)C
→ 0.5	0.9
- COc1ccc(S(=O)(=O)n2nc(-n3c(C)ccc3C)c3c(F)cccc32)cc1OC
→ nt	-2.7
- CC[C@@H]1/C=C(\C)C[C@H](C)C[C@H](OC)[C@H]2O[C@@](O)(C(=O)C(=O)N3CCCC[C@H]3C(=O)O[C@H](/C(C)=C/[C@@H]3CC[C@@H](O)[C@H](OC)C3)[C@H](C)[C@@H](O)CC1=O)[C@H](C)C[C@@H]2OC
→ -0.3	-9.6
- CN(CC(=O)O)c1ncc(-c2nnnn2-c2ccccc2)c(-c2ccccc2Cl)n1
→ 0.4	-4.4
- C[C@@H]1CN([C@H](C)CO)C(=O)c2cccc(NC(=O)Nc3ccccc3)c2O[C@H]1CN(C)C(=O)NC1CCCCC1
→ nt	2.6
- Cc1noc(C)c1NC(=O)N(C)C[C@@H]1Oc2ccc(NS(=O)(=O)c3cn(C)cn3)cc2C(=O)N([C@H](C)CO)C[C@@H]1C
→ -0.3	-1.9
- Cc1noc(C)c1NC(=O)N(C)C[C@@H]1Oc2c(NC(=O)Nc3ccc4c(c3)OCO4)cccc2C(=O)N([C@H](C)CO)C[C@H]1C
→ nt	8.1
- CCCCC(CC)CSc1nc2ncccc2[nH]1 (centres undefined)
→ -1.2	-0.8
- C[C@@H]1CN([C@H](C)CO)C(=O)c2cccc(NS(=O)(=O)c3ccccc3)c2O[C@H]1CN(C)CC1CC1
→ nt	-11
- Cc1ccc2c(c1)NC(C(F)(F)F)(C(F)(F)F)NC2=O
→ -0.1	-2.0
- C[C@H]1CN([C@@H](C)CO)C(=O)c2cccc(NC(=O)C3CCOCC3)c2O[C@H]1CN(C)C
→ nt	6.5
- Cc1cc(C(=O)Nc2cccc3c2O[C@H](CN(C)S(=O)(=O)c2ccc(Cl)cc2)[C@@H](C)CN([C@@H](C)CO)C3=O)n(C)n1
→ nt	2.0
- CN1C(=O)CN(C2CCCCC2)C1=O
→ nt	-7.2
- COc1ccc(OC)c(C2=NOC(C(=O)N(C)C3CCCCC3)C2)c1 (centres undefined)
→ nt	-7.8
- OC(CNCc1ccccc1)Cn1c2ccc(Cl)cc2c2cc(Cl)ccc21 (centres undefined)
→ 5.6	4.7
- O=C(/C=C\c1ccccc1)Nc1ccc(-c2cn3cccnc3n2)cc1
→ nt	-0.8
- CC(=O)N[C@H]1[C@H](O[C@@H]2[C@@H](O)[C@H](C)O[C@@H](Oc3ccc4c(=O)c(-c5ccc(O)cc5)coc4c3)[C@@H]2O)O[C@H](CO)[C@@H](O[C@@H]2O[C@@H](C)[C@H](O)[C@@H](O)[C@H]2O)[C@@H]1O
→ 0.9	4.1
- COc1ccc(S(=O)(=O)Nc2cccc3c2O[C@@H](CN(C)CC2CCCCC2)[C@@H](C)CN([C@H](C)CO)C3=O)cc1
→ nt	5.1
- C[C@@H]1CN([C@@H](C)CO)C(=O)c2cc(NC(=O)CCC(F)(F)F)ccc2O[C@H]1CN(C)S(C)(=O)=O
→ 0.5	-0.1
- Cc1noc(C)c1NC(=O)N(C)C[C@H]1Oc2c(NC(=O)Nc3ccc(C(F)(F)F)cc3)cccc2C(=O)N([C@@H](C)CO)C[C@H]1C
→ nt	-0.8
- Cc1cc(O)c(C(=O)/C=C/N(C)C)c(=O)o1
→ -0.7	-6.5
- COc1ccc(CN(C)C[C@@H]2Oc3ccc(NC(=O)Nc4ccccc4)cc3C(=O)N([C@H](C)CO)C[C@H]2C)cc1
→ -0.8	1.8
- CN(Cc1ccccc1)S(=O)(=O)c1ccc(C(=O)Nc2ccc(-c3nc4ccccc4[nH]3)cc2)cc1
→ 22*	?
- O=C(O)/C=C/c1ccc(Cn2ccnc2)cc1
→ -0.4	3.2
- COc1ccc(NC(=O)Nc2cccc3c2O[C@@H](CN(C)C(=O)Nc2c(C)noc2C)[C@H](C)CN([C@@H](C)CO)C3=O)cc1
→ nt	0.4
- C[C@@H]1CN([C@H](C)CO)C(=O)c2cccc(NC(=O)C3CC3)c2O[C@H]1CN(C)S(=O)(=O)c1ccc(F)cc1
→ nt	-0.2
- Cc1noc(C)c1S(=O)(=O)Nc1ccc2c(c1)C(=O)N([C@H](C)CO)C[C@@H](C)[C@H](CN(C)S(=O)(=O)c1ccccc1)O2
→ 0.8	4.7
- COC(=O)C1=CO[C@@H](O[C@@H]2O[C@H](CO)[C@@H](O)[C@H](O)[C@H]2O)[C@@H]2[C@@H](CO)C=C[C@H]12
→ 0.0	-9.0
- C[C@H](CO)N1C[C@H](C)[C@H](CN(C)C)Oc2ccc(NS(=O)(=O)c3ccc(F)cc3)cc2C1=O
→ 0.1	-4.4
- Cc1cc(C(=O)Nc2cccc3c2O[C@@H](CN(C)S(=O)(=O)c2ccc(Cl)cc2)[C@H](C)CN([C@H](C)CO)C3=O)n(C)n1
→ nt	-1.2
- CN(C(=O)CSc1ccc(C(F)(F)F)cn1)c1c2c(nn1C)CCCC2
→ -0.5	-2.3
- C[C@@H]1CN([C@H](C)CO)C(=O)c2cccc(NC(=O)Nc3ccccc3)c2O[C@H]1CN(C)C
→ nt	0.5
- COc1cccc(-c2nc(CS(=O)(=O)CC(=O)Nc3ccccc3C)c(C)o2)c1
→ nt	1.5
- C[C@H]1CN([C@@H](C)CO)C(=O)c2cc(NC(=O)CCCN(C)C)ccc2O[C@@H]1CN(C)C
→ 0.1	-0.8
- COc1ccc(NC(=O)N(C)C[C@@H]2Oc3ccc(NC(=O)Nc4ccc(F)cc4)cc3C(=O)N([C@H](C)CO)C[C@H]2C)cc1
→ -0.3	3.4
- C[C@H]1CN([C@@H](C)CO)C(=O)c2cc(NC(=O)C3CCCCC3)ccc2O[C@H]1CN(C)C(=O)Nc1ccc2c(c1)OCO2
→ 0.1	3.1
- C[C@@H]1CN([C@H](C)CO)C(=O)c2cc(NC(=O)CCC(F)(F)F)ccc2O[C@@H]1CN(C)C(=O)Nc1cccc2ccccc12
→ -0.3	-3.7
- O=C(NCc1cccnc1)NC1(c2ccccc2)CC1
→ 1.9	-0.9
- COc1ccc(CN(C)C[C@H]2Oc3c(NC(=O)Nc4ccc(C(F)(F)F)cc4)cccc3C(=O)N([C@@H](C)CO)C[C@@H]2C)cc1
→ nt	2.4
- COc1ccc2c(c1)c(=O)oc1c(C)c3occ(C)c3cc12
→ 0.0	-0.2
- COCC1OC(OC(C)(C)C2CCC3(C)C(O2)C(O)CC2(C)/C(=C4\CCC(O)C(C)(CCC(O)C(C)(C)O)C4)CCC23)C(NC(C)=O)C(O)C1O (centres undefined)
→ -0.2	-2.1
- C[C@H](CO)N1C[C@H](C)[C@@H](CN(C)S(=O)(=O)c2ccc(Cl)cc2)Oc2c(NS(=O)(=O)c3ccc(F)cc3)cccc2C1=O
→ nt	1.9
- COC(OC)C1(C)NC(=O)c2ccccc2N1 (centres undefined)
→ 0.2	3.2
- C[C@@H]1CN([C@@H](C)CO)C(=O)c2cc(NC(=O)C3CCCCC3)ccc2O[C@@H]1CN(C)CC1CC1
→ -0.3	-2.4

Continuation:
Results follow in this order: A1 inh	BJeLR viab HTS
- C[C@@H]1CN([C@H](C)CO)C(=O)c2cccc(NS(=O)(=O)c3ccc(Cl)cc3)c2O[C@H]1CN(C)Cc1ccc(C(=O)O)cc1
→ nt	0.0
- Cc1ccc(C(=O)Nc2cccc(-c3nc4ccccc4o3)c2)cc1
→ -0.1	-1.4
- Clc1ccc2nc(Cl)cc(-c3ccccc3)c2c1
→ -0.2	-3.7
- C=C(CC/C=C(\C)C(=O)O)C1(O)CC=C(C)CC1 (centres undefined)
→ 0.2	-7.6
- O=C(Nc1ccc2c(c1)OCO2)c1ccncc1
→ -4.4	5.2
- O=C(NC1CCCCC1)c1cccc(Cn2cc(Cl)cn2)c1
→ nt	-1.2
- CNC(=S)N1N=C(c2ccccc2)CC1c1cc2ccc(C)cc2nc1Cl (centres undefined)
→ 1.1	-0.9
- CC(C)NC(=O)Nc1cccc2c1O[C@H](CN(C)S(=O)(=O)c1ccccc1)[C@H](C)CN([C@H](C)CO)C2=O
→ nt	-3.8
- C=CC1(C)C[C@H](OC(=O)C(C)CO)[C@H]2C(=C)C(=O)O[C@@H]2C1C(=C)CO (some centres undefined)
→ 0.1	-6.2
- CCOC(=O)C1=C(SCC(=O)Nc2ccccc2)NC(=O)C(C#N)C12CCCCC2 (centres undefined)
→ 0.4	-1.7
- O=S1(=O)CC(O)C(S(=O)(=O)c2ccc(Cl)cc2)C1 (centres undefined)
→ -0.1	-3.3
- C[C@H]1CN([C@@H](C)CO)C(=O)c2cc(NC(=O)c3ccncc3)ccc2O[C@@H]1CN(C)Cc1ccccc1
→ 0.9	3.8
- Cc1cc(C)cc(NC(=O)Cc2cccs2)c1
→ -1.5	5.4
- C[C@@H]1CN([C@H](C)CO)C(=O)c2cccc(N(C)C)c2O[C@H]1CN(C)Cc1ccc(C(=O)O)cc1
→ nt	0.7
- CCCNC(=O)NS(=O)(=O)c1ccc(Cl)cc1
→ -0.2	0.8
- O=C(/C=C/C=C/c1ccccc1)CC1(O)C(=O)Nc2ccc(Br)cc21 (centres undefined)
→ nt	-7.4
- C[C@@H]1CN([C@@H](C)CO)C(=O)c2cc(NS(C)(=O)=O)ccc2O[C@@H]1CN(C)C(=O)Nc1ccc(F)cc1
→ 0.5	0.5
- C[C@@H]1CN([C@@H](C)CO)C(=O)c2cc(NC(=O)C3CC3)ccc2O[C@@H]1CN(C)C(=O)Nc1ccccc1
→ -0.6	-0.8
- Cc1ccc(S(=O)(=O)N(C)C[C@@H]2Oc3ccc(NS(=O)(=O)c4ccc(Cl)cc4)cc3C(=O)N([C@@H](C)CO)C[C@@H]2C)cc1
→ 0.6	1.8
- C[C@@H]1CN([C@H](C)CO)C(=O)c2cc(NS(=O)(=O)c3cccs3)ccc2O[C@H]1CN(C)Cc1ccncc1
→ -0.3	1.5

Already shown: entries from further up.
Results follow in this order: A1 inh	BJeLR viab HTS
- O=C(/C=C/C=C/c1ccccc1)CC1(O)C(=O)Nc2ccc(Br)cc21 (centres undefined)
→ nt	-7.4
- C[C@@H]1CN([C@@H](C)CO)C(=O)c2cc(NS(C)(=O)=O)ccc2O[C@@H]1CN(C)C(=O)Nc1ccc(F)cc1
→ 0.5	0.5
- C[C@@H]1CN([C@@H](C)CO)C(=O)c2cc(NC(=O)C3CC3)ccc2O[C@@H]1CN(C)C(=O)Nc1ccccc1
→ -0.6	-0.8
- Cc1ccc(S(=O)(=O)N(C)C[C@@H]2Oc3ccc(NS(=O)(=O)c4ccc(Cl)cc4)cc3C(=O)N([C@@H](C)CO)C[C@@H]2C)cc1
→ 0.6	1.8
- C[C@@H]1CN([C@H](C)CO)C(=O)c2cc(NS(=O)(=O)c3cccs3)ccc2O[C@H]1CN(C)Cc1ccncc1
→ -0.3	1.5

The list goes on:
Results follow in this order: A1 inh	BJeLR viab HTS
- Cc1cc(F)ccc1NS(=O)(=O)c1cc(Br)cnc1N
→ -0.8	1.7
- O=C(Nc1ccccc1)c1cnc[nH]1
→ -4.7	3.0
- Cn1c2ccccc2c2cnn(CC(=O)O)c(=O)c21
→ 0.4	-1.7
- CCOC(=O)c1c(SC)n(-c2ccccc2)c(=S)n(-c2ccccc2)c1=O
→ -0.8	7.1
- CCOC(=O)N1CCC(NC(=O)c2cc(S(=O)(=O)N(CC)CC)ccc2F)CC1
→ 0.7	5.5
- O=C1/C(=C/c2ccc(O)cc2)SC(=S)N1CC1CCCO1 (centres undefined)
→ -2.2	-17
